2A StopGo: High Throughput Screening for Foot and Mouth Disease Virus Antivirals. human cells with a luciferase reporter of 2A StopGo recoding; control for the full effect not named in the record. Potency, µM (series often up to 57.9 µM), without a hit: top-dose signal change, negative = less light. 1.2% of 410,000 active. AID 1159524, 2015; active = well fitted falling curve with a large enough effect; inconclusive = small, poorly fitted or top-dose-only effect; inactive = no such curve, though single readings can be large or run the other way; tested in HEK293T cells; further: on the % scale 0 is the no-effect control and ±100 the full control effect; nearly all actives have a fitted effect of over 45% in size; luciferase light after 4 h
Lassa entry inh: qHTS for Inhibitors of binding or entry into cells for Lassa Virus | AID 540256, 2011 | Lassa virus pseudotype entry inhibition, cell reporter; control for the full effect not named in the record | 1.2% of 300,000 active | Potency, µM (highest dose often 37.9 µM), inactives show at the highest dose activity change, negative = inhibition, hits mostly inhibitors; active means well fitted inhibition curve with a large enough effect; inconclusive means small, poorly fitted or top-dose-only effect, or effect the other way; inactive means flat fitted curve, though single readings scatter; tested in HEK293 cells; further: on the % scale 0 is the no-effect control and ±100 the full control effect; nearly all actives have a fitted effect of over 50% in size; luciferase read-out
Cruzain noTriton: qHTS Assay for Promiscuous and Specific Inhibitors of Cruzain (without detergent); Potency, µM, for the others: max response, negative = inhibition, most hits filed as inhibitors; 2.3% of 200,000 active; purified cruzain, Z-FR-AMC fluorescence, no detergent; AID 1476, 2009; active means well fitted curve in the direction sought with a large enough effect; inconclusive means small, poorly fitted or top-dose-only effect, or another doubt; inactive means no such curve, though single readings can be large; an effect the other way counts as inactive or inconclusive;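 further: plate controls were enzyme without inhibitor for no effect and buffer without enzyme for full effect; nearly all actives have a fitted effect of over 40% in size; top concentration of the series not given in the record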
Target sequence (P25779 123-467 limits assumed): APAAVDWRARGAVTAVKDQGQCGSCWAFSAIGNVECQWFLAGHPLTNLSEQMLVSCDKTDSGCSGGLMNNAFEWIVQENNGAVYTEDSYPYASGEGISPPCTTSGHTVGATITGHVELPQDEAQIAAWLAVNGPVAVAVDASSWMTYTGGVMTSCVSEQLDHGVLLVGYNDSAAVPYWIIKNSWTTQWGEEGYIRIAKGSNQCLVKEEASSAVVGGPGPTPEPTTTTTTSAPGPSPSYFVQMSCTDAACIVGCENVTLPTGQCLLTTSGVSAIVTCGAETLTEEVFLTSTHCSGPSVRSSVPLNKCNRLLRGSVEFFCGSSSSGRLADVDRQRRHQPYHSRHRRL
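Detergent-free condition (0.00005% Triton X-100) in acetate buffer pH 5.5 with DTT. 1.5 nM enzyme and compound were pre-mixed 15 min, then 2 uM Z-FR-AMC substrate added; reaction progress from fluorescence change between first and third reads (60 s).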
RE007 growth inh: qHTS Assay for Inhibitors of the HIV-1 protein Vpr | S. pombe RE007 Vpr strain, BacTiter-Glo ATP luminescence, 24 h; control for the full effect not named in the record | Potency, µM (top dose mostly 92.2 µM), inactives show at the highest dose activity change, negative = less growth | 0.21% of 360,000 active | AID 651644, 2012; active = well fitted falling curve with a large enough effect; inconclusive = small, poorly fitted or top-dose-only effect; inactive = no such curve, though single readings can be large or run the other way;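 further: on the % scale 0 is the no-effect control and ±100 the full control effect; nearly all actives have a fitted effect of over 50% in size; the assay follows cell death caused by Vpr and the record does not say whether a fall means rescue or toxicity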
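Fission yeast RE007 carrying one integrated HIV-1 vpr copy, seeded at OD 0.01 in PMG+AL medium with 23 nL pinned compound. Grown 24 h at 30 degrees; viability read by BacTiter-Glo luminescence after 5 min.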
SARS PLP yeast: qHTS of Yeast-based Assay for SARS-CoV PLP; Potency, µM (top dose mostly 32.9 µM), without a hit: top-dose activity, positive = growth rescue; AID 485353, 2010; 0.19% of 330,000 active; S. cerevisiae expressing SARS-CoV PLpro, growth rescue; control for the full effect not named in the record; further: 0% is about no effect; nearly all actives have a fitted effect of over 55% in size; growth read by luminescence after 48 h
Cruzain inh Det: qHTS Assay for Promiscuous and Specific Inhibitors of Cruzain (with detergent) | 0.43% of 200,000 active | Potency, µM, inactives show max response, negative = inhibition, actives largely listed as inhibitors | Cruzipain (Trypanosoma cruzi), P25779 | purified cruzain, Z-FR-AMC fluorescence, 0.01% Triton; active means well fitted curve in the direction sought with a large enough effect; inconclusive means small, poorly fitted or top-dose-only effect, or another doubt; inactive means no such curve, though single readings can be large; an effect the other way counts as inactive or inconclusive;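 further: plate controls were neutral wells for no effect and buffer without enzyme for full effect; nearly all actives have a fitted effect of over 40% in size; top concentration of the series not given in the record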
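Cruzain (1.5 nM) preincubated 15 min at RT with compound in 100 mM sodium acetate pH 5.5, 5 mM DTT, 0.01% Triton X-100. Reaction started with 2 uM Z-FR-AMC; AMC fluorescence (ex 360/em 450 nm) change over 60 s gave rate.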
NS1 inh: qHTS Assay for Inhibitors of Influenza NS1 Protein Function; Potency, µM (highest dose often 46.1 µM), for inactives: at the top dose activity, positive = more growth; 0.4% of 270,000 active; S. cerevisiae slowed by influenza A NS1, growth recovery by OD600; further: actives are rising curves; nearly all actives have a fitted effect of over 50% in size
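Read-out: OD600 growth recovery of NS1-expressing budding yeast. Cells grown overnight at 30C in -URA glucose medium, washed, resuspended and diluted 1:100 in 2% galactose assay medium, pH 6.0. Same strain lacking NS1 served as positive control.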
MARV entry inh: qHTS for inhibitors of binding or entry into cells for Marburg Virus. Marburg virus pseudotyped entry inhibition, cell reporter; control for the full effect not named in the record; about a third of the inactives were read at about 46 µM. Potency, µM (top dose mostly 37.8 µM), inactives show at the top dose activity change, negative = inhibition, hits mostly inhibitors. 1.8% of 300,000 active; active = well fitted inhibition curve with a large enough effect; inconclusive = small, poorly fitted or top-dose-only effect, or effect the other way; inactive = flat fitted curve, though single readings scatter; tested in HEK293 cells; about a fifth of its hits are not listed in these tables; further: on the % scale 0 is the no-effect control and ±100 the full control effect; luciferase read-out
An asterisk follows results filed as active; ? = inconclusive; / = not tested or not shown; & = joins results of further samples; [ ] = another dose, or the depositor's remark. Unless noted, the call rests on the fitted dose curve; in most records, active means well fitted rising curve with a large enough effect; inconclusive means small, poorly fitted or top-dose-only effect; inactive means no such curve, though single readings can be large or run the other way. Potency means the concentration at half of the fitted maximal effect.

SMILES	2A StopGo	Lassa entry inh	Cruzain noTriton	RE007 growth inh	SARS PLP yeast	Cruzain inh Det	NS1 inh	MARV entry inh
CC(C)c1nc2cc(C(=O)NC(C)c3cnn(C)c3)ccc2o1 (stereo unspecified)	-5%	/	/	-7%	-4%	/	-7%	/
C=CCNc1nnc(Cc2ccc(F)cc2)c(=O)[nH]1	11%	/	/	-11%	-2%	/	3%	/
COc1ccc2c(CC(=O)Nc3ccc(C)cc3)coc2c1	23%	8%[46.1 µM]	-14%	/	/	-8.2%	/	9%[46.1 µM]
C=CCNC(=S)/N=c1/ccccn1C	-9%	1%	/	?	-4%	/	0%	4%
CS(=O)(=O)N(Cc1ccc(C(=O)NCCSCc2ccco2)cc1)c1ccccc1	-20%	-9%	2%	11%	2%	2.5%	-8%	?
CC1CCN(S(=O)(=O)c2ccccc2[N+](=O)[O-])CC1	-4%	5%	-2%	-12%	12%	-4.4%	-15%	6%
CC1=C(/C=C/C(=O)O)C(C)(C)CCC1	-8%	-10%	1%	-9%	-6%	3.1%	-149%	7%
CCOc1ccc(S(=O)(=O)N2CCN(Cc3ccc4c(c3)OCO4)CC2)cc1OCC	-1%	?	/	5%	-1%	/	-5%	9%[46.1 µM]
CC1(C)C(=O)OC(c2ccco2)C(C)(C)C1=O (stereo unspecified)	7%	-12%	-12%	14%	-1%	4.0%	11%	10%
O=C(O)/C=C/C(=O)NNC(=O)c1cc(-c2ccccc2)n[nH]1	-15%	?	/	11%	-5%	/	-9%	-15%[46.1 µM]
COc1ccc2cc3cc(C(=O)NCCCN4CCC(C)CC4)oc3nc2c1	2%	/	/	-12%	2%	/	1%	/
Cn1c(=O)c2c(ncn2CC(=O)N/N=C/C(Br)=C/c2ccccc2)n(C)c1=O	?	-12%	?	-3%	4%	-8.8%	7%	-16%
CCOc1ccc(-n2c(=O)c3sccc3n(CC(=O)NCC3CCCO3)c2=O)cc1 (stereo unspecified)	-1%	-2%[46.1 µM]	/	2%	1%	/	0%	15%[46.1 µM]
CCN(Cc1cc(=O)[nH]c2ccccc12)C(=O)c1ccc(C)cc1	14%	/	/	-12%	0%	/	-8%	/
COc1cccc(CN(C)C(=O)C(CCSC)NS(=O)(=O)c2ccc3c(c2)OCCO3)c1OC (stereo unspecified)	-16%	?	/	-1%	-2%	/	/	?
Cc1nn2c(nc1=O)SCC(c1ccccc1)=N2	39%[activator]	?	-3%	2%	16%	1.2%	1%	-3%[46.1 µM]
CCOC(=O)c1[nH]nc(-c2c(O)cc(C)cc2O)c1-c1csc(C)n1	-13%	-1%	6%	-24%	-5%	1.4%	3%	12%
CC[C@@H]1CC=C[C@H]2[C@H]1C(=O)N(Cc1ccccc1)[C@H]2c1ccoc1	?	/	/	3%	-11%	/	-37%	/
O=C(COC(=O)C1CC1)NCCc1ccccc1	25%	-1%	/	6%	12%	/	/	2%
COc1ccccc1C(=O)NNC(=O)c1ccc(F)cc1	23%	8%	13%	-5%	-3%	-0.5%	7%	15%
CCC(C(=O)Nc1cc(C)on1)c1ccccc1 (stereo unspecified)	-19%	-21%	4%	3%	-2%	5.3%	-3%	18%[46.1 µM]
COc1ccc(OC)c(-c2cc(C(=O)Nc3c(C)n(C)n(-c4ccccc4)c3=O)no2)c1	8%	-17%	-11%	6%	?	-1.8%	0%	-21%
COc1ccc(N(CC(=O)Nc2cc(Cl)ccc2C)S(=O)(=O)c2c(C)n[nH]c2C)cc1	-29%	/	/	3%	3%	/	15%	/
O=Cc1c(NCCc2ccc(F)cc2)c2ccccc2[nH]c1=O	25%	1%	/	-2%	0%	/	-22%	2%
NC(=O)CC(NC(=O)c1ccccc1)c1ccc(NCc2ccccn2)c([N+](=O)[O-])c1 (stereo unspecified)	-12%	/	/	0%	-11%	/	-11%	/
Cc1ccc(/C=N\NC(=O)c2csnn2)cc1	-35%	11%	-11%	-1%	2%	1.0%	5%	?
COc1cccc2sc3ccc(C#CC4(O)CCCCC4)cc3c(=O)c12	-5%	/	/	0%	-28%	/	-87%	/
COc1ccc(NS(=O)(=O)c2cccc(C(=O)N/N=C/c3ccccn3)c2)cc1	77%[activator]	9%	/	12%	-1%	/	2%	-11%[46.1 µM]
CC(=O)OC(C[N+]1(C)CCCCCC1)c1ccccc1 (stereo unspecified)	-9%	/	/	-10%	2%	/	-3%	/
Cc1nc2scc(-c3cccs3)c2c(=O)n1CC(=O)O	3%	0%	0%	1%	8%	1.4%	-7%	15%
N#Cc1c(-c2ccccc2)oc(=O)c2ccccc12	13%	/	/	1%	-2%	/	-3%	/
COc1ccccc1C(=O)N/C(=C/c1ccc2c(c1)OCO2)C(=O)Nc1ccc(C(=O)O)cc1	-22%	21%	/	11%	-10%	/	1%	-30%[46.1 µM]
CC(=O)Nc1c(OC(C)=O)ccc2c(C)cc(=O)oc12	-26%	-8%	-3%	0%	-1%	0.1%	4%	-4%
CCOC(=O)C1=C(COC(=O)c2cccc(Br)c2)NC(=O)NC1C (stereo unspecified)	-11%	0%	/	-14%	2%	/	/	?
COc1ccc(C(C2C(=O)CC(C)(C)CC2=O)C2C(=O)CC(C)(C)CC2=O)cc1CO	-21%	/	/	-7%	1%	/	-1%	/
CC(C)CN(C(=O)COC(=O)c1cc(=O)[nH]c2ccccc12)c1c(N)n(Cc2ccccc2)c(=O)[nH]c1=O	-20%	-4%	/	1%	/	/	/	?
COc1ccc(Cl)cc1NC(=S)NCc1ccco1	41%[activator]	8%	1%	5%	4%	4.7%	1%	5%
O=C(N[C@@H](Cc1ccccc1)C(=O)OCC(=O)N1CCOCC1)c1cccs1	-16%	-2%[46.1 µM]	/	8%	3%	/	/	10%[46.1 µM]
COc1cccc(-n2c(/C=C/c3ccccn3)nc3ccccc3c2=O)c1	-29%	?	/	-8%	4%	/	29%	?
COc1ccc(OC)c(S(=O)(=O)Nc2ccc3c(c2)n(C)c(=O)n3C)c1	53%&73%[activator]	-9%&0%[46.1 µM]	1%	2%	-17%	0.8%	-4%	-3%&-3%[46.1 µM]
c1ccc(N=Nc2cn[nH]c2-c2ccco2)cc1	21%	-5%	/	-16%	-5%	/	/	-7%[46.1 µM]
Cc1cc(NC(=S)Nc2cccnc2)ccc1Br	10%	2%[46.1 µM]	/	-3%	-4%	/	/	11%[46.1 µM]
COc1ccc(CN2CCCCC2C)cc1OC (stereo unspecified)	/	?	7%	4%	-1%	5.9%	-3%	-8%
COc1ccc(C2C(=O)N(C3CCCCCC3)CC(=O)N2CCc2ccc(Cl)cc2)cc1OC (stereo unspecified)	-19%	-17%[46.1 µM]	11%	/	/	1.0%	/	/
Cc1cc(C)cc(NC(=O)CSc2c(C(C)C)cnc3c2c(=O)n(C)c(=O)n3C)c1	4%	-5%[46.1 µM]	-9%	/	/	1.5%	/	/
CCOc1ccc(NC(=O)CSc2nnc(CCNC(=O)c3ccc(OC)cc3)n2C)cc1	11%	-1%	-4%	0%	9%	3.9%	-9%	9%
CC(C)(C)CC(=O)NC(=S)NCCc1ccccc1	23%	8%	-4%	-14%	27%	1.9%	-4%	-13%
Cc1c(C=O)c2ccccn2c1C(=O)c1ccncc1	-12%	0%	-20%	4%	-8%	-14%	-25%	-5%
Cc1ccc(N2C(=O)C(CN3CCCCC3)C2c2ccccc2)cc1 (stereo unspecified)	-11%	-26%	/	9%	-2%	/	-3%	?
CC(=O)Nc1ccc(NS(=O)(=O)c2c(C(=O)N3CCC(C)CC3)c(C)n(C)c2C)cc1	4%	-10%[46.1 µM]	-13%	/	/	0.2%	/	/
COc1ccc(OCC(=O)N2c3ccccc3CCc3ccccc32)cc1	-15%	3%	2%	0%	4%	-3.3%	-21%	-23%
Cc1ccc(S(=O)(=O)N(C)C)cc1NC(=S)Nc1ccc2cn[nH]c2c1	-8%	14%	/	9%	-4%	/	/	-5%[46.1 µM]
CN(C)c1ccc(/C=c2\sc3n(c2=O)CCCN=3)cc1	-23%	2µM*	-2%	0%	-4%	-12%	-36%	?
O=C(NCc1ccco1)c1ccccc1Nc1ccc(F)cc1	-7%	?	1%	?	-9%	-6.4%	-43%	9%
Cc1ccc(C(=O)O)cc1NC(=S)NC(=O)c1ccc(COc2ccccc2)cc1	12%	/	/	-14%	0%	/	19%	/
CCOc1cc(CNCc2ccc(C(=O)O)cc2)ccc1OC	-8%	0%	/	1%	1%	/	1%	?
NCCCC[C@H]1CNC(=S)N1CCc1cccc(F)c1	-3%	/	/	-8%	1%	/	4%	/
O=C(Nc1ccc(S(=O)(=O)N2CCCC2)cc1)c1ccc2c(=O)n3c(nc2c1)CCCCC3	?	-2%	?	14%	6%	-3.9%	26%	2.5µM*
Nc1nnc(SCC(=O)NC2CCCCCCC2)s1	-17%	11%	/	6%	0%	/	/	14%[46.1 µM]
COc1ccc(CNC(=O)C(=O)NCC2OCCN2S(=O)(=O)c2ccc(C)cc2)cc1 (stereo unspecified)	-4%	-3%	/	6%	-1%	/	17%	?
Following part:
SMILES	2A StopGo	Lassa entry inh	Cruzain noTriton	RE007 growth inh	SARS PLP yeast	Cruzain inh Det	NS1 inh	MARV entry inh
CCCOc1ccc(C2c3c(-c4c(C)cc(C)cc4O)n[nH]c3C(=O)N2CCO)cc1 (stereo unspecified)	?	?	0%	/	/	-1.5%	/	11%[46.1 µM]
COc1cc(NC(=O)c2ccc(-c3cccc([N+](=O)[O-])c3)o2)ccc1NC(=O)C(C)C	-16%	-25%	/	-23%	1%	/	-8%	5%
O=C(Nc1cccn2ncnc12)C(Cl)Cl	-4%	0%	-7%	12%	2%	9.3%	-4%	-12%[46.1 µM]
COCCNC(=O)Nc1ccc(F)cc1	5%	-15%	/	0%	0%	/	6%	0%[14.2 µM]
CCOc1ccccc1-c1nc(-c2ccc(NC(=O)Cc3ccc(OC)cc3)cc2)no1	?	-30%	7.9µM*	2%	3%	0.9%	5%	?

Outcome played no part in choosing rows (roughly 4.7% active in at least one column).
